Bioassay records: PubChem BioAssay, Broad Institute
Tg IFNy HTS – blocks Toxoplasma gondii growth in the presence of IFN-gamma; actives 3.8% (n = 69,000); activity change, negative = inhibition, %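 (about 20 µM by stock and volumes)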; Toxoplasma gondii growth in IFN-gamma-treated host cells; hits give low values; reference of the scale not given here;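 active = below -70%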;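 also: host cells are HeLa cells infected with Toxoplasma gondii; parasite growth read as luciferase light; one replicate is shown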
* marks the source's active call; other numbers are inactive results; & = joins results of further samples. The list is partial (hit frequency here may not be typical).

SMILES	Tg IFNy HTS
O=C([C@H]1CCCO1)N1CCOC2(CCCN(c3ccccc3)C2)C1 (stereo not given in full)	-1
Cc1nccn1CCCn1cncc1-c1ccc2c(c1)CC(C)(C)O2	-29
O=C(c1ccccc1C1CCNC1)N1CCc2[nH]nc(C3CCC3)c2C1 (stereo not given)	-4
CC(C)c1noc(-c2cc(=O)n(CC(=O)NCc3cccs3)c3ccccc23)n1	57
NC(=O)C1(N2CCOCC2)CCN(c2nnc(N3CCCCC3)c3ccccc23)CC1	-24
CC(C)Cc1ccc(S(=O)(=O)N2CCC3(CC2)NCCN=C3NC2CCCC2)cc1	-29
OC[C@H]1O[C@H](O)C[C@@H](O)[C@@H]1O	9
Cc1noc(C)c1CN1CCC2(CC(=O)N(c3cccc(C#N)c3)C2)C1 (stereo not given)	-2
CCOC(=O)c1[nH]c(C)c(C(=O)N2CCc3c(ncnc3N(C)C)C2)c1C	9
Cc1ccc(-c2coc(-c3ccc(NC(=O)c4cccc(F)c4)cc3)n2)cc1	-10
C=CCN1C(=O)CCCC12CCCN(c1cccnc1)C2 (stereo not given)	3
CCOc1ccc(-c2nc3c(s2)CN(S(=O)(=O)c2ccc(C(C)C)cc2)CC3)cc1	-7
Cc1cccc(-n2c(SCC(N)=O)nnc2-c2cccs2)c1C	-3
O=C(c1ccncc1F)N1CCC2(CC1)CC(Nc1ncccn1)C2	-5
Cc1ccc(CN2CCC3(CCCN(C(=O)Cc4cccnc4)C3)C2)o1 (stereo not given)	-1
CC(C)[C@H](N)C(=O)OCC(CO)OCn1cnc2c(=O)[nH]c(N)nc21 (stereo not given in full)	20&14
CCN1c2cc(C)ccc2-n2cccc2C12CCN(C(=O)Nc1cc(F)ccc1F)CC2	-51
O=C(CN1CCC2(CC1)N=C(c1ccc(F)cc1)C(=O)N2)Nc1ccccc1C(F)(F)F	17
CCCCCCCC(=O)OCC(=O)[C@@]1(O)CC[C@H]2[C@@H]3CCC4=CC(=O)CC[C@]4(C)[C@H]3[C@@H](O)C[C@@]21C	-5
O=C(NCCc1csc(-c2ccc(F)cc2)n1)c1ccccc1	-81*
COc1ccc(-c2ccnc(N)c2)c(C)c1	-3
CCOc1ccc(C2CCCN2C(=O)c2cc(S(=O)(=O)NC)ccc2F)cc1 (stereo not given)	3
COC(=O)c1ccccc1NC(=O)N1CCN(Cc2nc(-c3cccc(Cl)c3)oc2C)CC1	0
N#C[C@H]1[C@@H](c2ccc(/C=C/c3ccccc3)cc2)[C@@H](CO)N1C(=O)C1CCCC1	2
CCS(=O)(=O)N1CCn2cc(CN(C)Cc3cccnc3)nc2C1	-2
CCOC(=O)c1noc2nc(C)n(Cc3nc(-c4ccc(OC)c(OC)c4)oc3C)c(=O)c12	-22
O=C(NCCc1csc(-c2ccc(Cl)cc2)n1)C12CC3CC(CC(C3)C1)C2	-35
CCOc1ccc(-c2cc3c(=O)n(Cc4nc(-c5cc(OC)c(OC)c(OC)c5)oc4C)ccn3n2)cc1	-28
NCC1Cc2cc(-c3nc4ccccc4o3)cc(F)c2O1 (stereo not given)	30
NC(=O)[C@@H]1CCCN1C(=O)c1cc2n(n1)CCCN(Cc1ccccc1)C2	4
O=C(C1CC1)N1CCC(c2nc3ccc(-c4ccccc4)cn3n2)CC1	226
Cc1ccccc1Cc1nnc(NC(=O)C(C)Cn2cncn2)s1 (stereo not given)	-14
CCCn1cnnc1C(C)NC(=O)c1scc2c1OCCO2 (stereo not given)	-6
Cc1cccc(NCC2COC3(COCCN(Cc4nccn4C)C3)C2)c1 (stereo not given)	2
O=c1oc2c(Cl)cc(Cl)cc2cc1-c1nc2ccccc2[nH]1	79
CN(C)c1ccc(CN2CC3CN(S(=O)(=O)Cc4ccccc4)CC3C2)cc1 (stereo not given)	8
O=C(NCCc1csc(-c2ccccc2)n1)c1c(F)cccc1F	8
COC(=O)c1c(NCc2ccc(F)cc2)c2ccccc2[nH]c1=O	-14
COc1ccc(OCC(=O)N2CCC3(CC2)Nc2cccnc2NC3=NC(C)(C)C)cc1	65
Cc1csc(CN2C[C@@H]3CCCO[C@H]3[C@H](N3CCCC3=O)C2)n1	-43
C[C@H]1CN([C@@H](C)CO)C(=O)c2ccccc2-c2ccccc2CO[C@H]1CN(C)C(=O)NC1CCCCC1	14
CC(C)CNC(=O)N1CC2CC(C(=O)NCC3CC3)C(C1)O2 (stereo not given)	-4
Cc1cc(C(=O)Nc2ccc3c(c2)C(=O)N(C)[C@H]2CC[C@@H](CC(=O)NCc4ccc(-c5ccccc5)cc4)O[C@@H]2CO3)no1	-46
OC[C@@H]1[C@@H](c2ccc(C#CC3(O)CCCC3)cc2)[C@@H]2CN(Cc3cncnc3)CCCCN12	23
Cc1cc(C)n(C(C)CNC(=O)c2cc3n(n2)CCNC3)n1 (stereo not given)	6
CCN(C(=O)CN1CCCC(O)(Cn2cnc3ccccc32)C1)C1CCS(=O)(=O)C1 (stereo not given)	-8
O=C(c1ccc(F)cc1)c1cn(CC(=O)N2CCOCC2)c2c(Cl)nccc12	-2
CC(C)CCC1(C2CCNCC2)NC(=O)NC1=O (stereo not given)	-11
CCc1ccc(-c2cc3c(=O)n(Cc4nc(-c5ccccc5C)oc4C)ccn3n2)cc1	62
NS(=O)(=O)c1cccc(-c2ccc(C3Nc4ccccc4-c4nc5ccccc5n43)o2)c1 (stereo not given)	214

Remaining list, next part
SMILES	Tg IFNy HTS
COc1ccc(C)cc1NC(=O)N1CCCC2(C1)Nc1cccnc1NC2=NC1CCCC1 (stereo not given)	31
CCOc1ccc(-c2nc(Cn3ccn4nc(-c5ccc(OC)c(OC)c5)cc4c3=O)c(C)o2)cc1	-65
Cc1cncc(C(=O)N2CCc3c(CN4CCCC4)nn(C)c3C2)c1	-2
CCc1ccc(NC(=O)C(=O)NCCc2sc(-c3ccc(OC)cc3)nc2C)cc1	27
O=C1CNC(=O)c2c(nc3n2CCC3)N1	-6
O=C(NC1CCCC1)c1ccc(N2CCC(NC3CCN(Cc4ccccc4)C3)CC2)cc1 (stereo not given)	-6
CCS(=O)(=O)N1CC2(CN(C(=O)c3cccnc3)C2)c2c(n(C)c3cc(OC)ccc23)[C@H]1CO	-69
CCCNC(=O)c1ccc2nnc(C3CN(CC4CC4)CCN3C)n2c1 (stereo not given)	5
CC(C)CC#Cc1ccc([C@H]2[C@@H](CO)N3CCCCN(C(=O)Nc4ccccc4)C[C@H]23)cc1	-60
Cc1ccc(C(=O)Nc2ccccc2CN2CCOCC2)cc1-n1cccn1	21
COCCN1CCN(C)C2(CCN(C(=O)c3csnn3)CC2)C1=O	-12
C=CCOCC1CN(S(=O)(=O)c2ccccc2)Cc2ccnn2C1 (stereo not given)	-1
CN1C(=O)c2cc(NC(=O)Cc3cccs3)ccc2OC[C@@H]2O[C@H](CC(=O)N[C@@H]3CCN(Cc4ccccc4)C3)CC[C@@H]21	-43
COc1ccc(-n2ccnc2-c2ccc(CO)o2)cc1OC	-3
O=C(c1cccc(F)c1)N1C[C@H](OCc2cccnc2)[C@@H]2COC[C@@H]21	-10
CC(C)n1nc(CN(C)C)c2c1CN(C(=O)CC1CC1)CC2	5
COCC(NC(=O)c1cc2n(n1)CCCN(C)C2)c1ccccn1 (stereo not given)	-3
Cc1cc(C)cc(NC(=O)CSc2nc(-c3ccccc3)nn2C(=O)c2ccco2)c1	2
CCOC(=O)N1CCC2(CC1)OC(=O)C(C)=C2C(=O)NCCOC	31
COc1ccc(C(=O)N2CCC(c3nc(C(=O)N4CCCC4)c(C)o3)CC2)cc1OC	41

Part of the list above, set out differently.
SMILES | Tg IFNy HTS
CCc1ccc(NC(=O)C(=O)NCCc2sc(-c3ccc(OC)cc3)nc2C)cc1 | 27
O=C1CNC(=O)c2c(nc3n2CCC3)N1 | -6
O=C(NC1CCCC1)c1ccc(N2CCC(NC3CCN(Cc4ccccc4)C3)CC2)cc1 (stereo not given) | -6
CCS(=O)(=O)N1CC2(CN(C(=O)c3cccnc3)C2)c2c(n(C)c3cc(OC)ccc23)[C@H]1CO | -69
CCCNC(=O)c1ccc2nnc(C3CN(CC4CC4)CCN3C)n2c1 (stereo not given) | 5
CC(C)CC#Cc1ccc([C@H]2[C@@H](CO)N3CCCCN(C(=O)Nc4ccccc4)C[C@H]23)cc1 | -60
Cc1ccc(C(=O)Nc2ccccc2CN2CCOCC2)cc1-n1cccn1 | 21
COCCN1CCN(C)C2(CCN(C(=O)c3csnn3)CC2)C1=O | -12
C=CCOCC1CN(S(=O)(=O)c2ccccc2)Cc2ccnn2C1 (stereo not given) | -1
CN1C(=O)c2cc(NC(=O)Cc3cccs3)ccc2OC[C@@H]2O[C@H](CC(=O)N[C@@H]3CCN(Cc4ccccc4)C3)CC[C@@H]21 | -43
COc1ccc(-n2ccnc2-c2ccc(CO)o2)cc1OC | -3
O=C(c1cccc(F)c1)N1C[C@H](OCc2cccnc2)[C@@H]2COC[C@@H]21 | -10
CC(C)n1nc(CN(C)C)c2c1CN(C(=O)CC1CC1)CC2 | 5
COCC(NC(=O)c1cc2n(n1)CCCN(C)C2)c1ccccn1 (stereo not given) | -3
Cc1cc(C)cc(NC(=O)CSc2nc(-c3ccccc3)nn2C(=O)c2ccco2)c1 | 2

Copied from the list:
For Tg IFNy HTS, COCCN1CCN(C)C2(CCN(C(=O)c3csnn3)CC2)C1=O is listed with -12
For Tg IFNy HTS, C=CCOCC1CN(S(=O)(=O)c2ccccc2)Cc2ccnn2C1 (stereo not given) is listed with -1

Continuation.
SMILES	Tg IFNy HTS
Cc1ccc(C(=O)Cn2c3c(sc2=N)CCCC3)cc1	145
C[C@H]1CN([C@@H](C)CO)S(=O)(=O)c2ccc(C#CCC3CCCC3)cc2O[C@H]1CN(C)C(=O)c1cnccn1	-91*
Cc1ccc(S(=O)(=O)NCCc2csc(-c3ccc(F)cc3)n2)c(C)c1	-11
CC1CCC2(CCN(C(=O)c3cnccn3)CC2)c2ccccc21 (stereo not given)	-16
CCOc1ccc(CNC(=O)Cn2ncc3c(N4CCCC4)ncnc32)cc1OCC	-4
O=C(Nc1nccc2ccccc12)c1cccc(CN2CCCC(CO)C2)c1 (stereo not given)	31
CS(=O)(=O)N1CCOC(CNCC(=O)NCc2ccccc2F)C1 (stereo not given)	8
O=S1(=O)CCC(NCc2ccco2)C1 (stereo not given)	34
O=C(Nc1ccccc1)Sc1ccc(F)cc1F	-47
Cc1ccc(CC(=O)N2CCOCC3(CCC(CN(C)C)O3)C2)cc1 (stereo not given)	85
Cc1c(C(C)NC(=O)c2cccc(Nc3nc(-c4ccccn4)cs3)c2)cnn1C (stereo not given)	21
CNC(=O)c1nc2c(s1)CCN(C(=O)NCc1ccccc1)CC2	66
CO[C@@H]1CN(C)C(=O)c2ccc(NS(=O)(=O)c3c(C)noc3C)cc2OC[C@H](C)NC[C@@H]1C	108
CCn1c(C2CCN(C(=O)c3cc(-c4ccccc4)on3)CC2)nn(C)c1=O	-2
O=C(NC(Cc1cc(=O)[nH]c(-c2ccncc2)n1)c1ccc(F)cc1)C1CCCC1 (stereo not given)	3
c1ccc(CN2CCCC3(COCCN(c4ncccn4)C3)C2)cc1 (stereo not given)	-1
COc1ccc(C(=O)O)cc1CN1CCCCC1	-9
CO[C@H]1CN(C(=O)c2cc3ccccc3[nH]2)CC[C@H]1N	-1
CC(NC(=O)CCN1CCCCCC1=O)c1ccc(O)c(F)c1 (stereo not given)	9
C[C@H]1CCCCO[C@H](CN(C)S(C)(=O)=O)[C@@H](C)CN([C@@H](C)CO)C(=O)c2cc(NC(=O)NC3CCCCC3)ccc2O1	15
Cc1ccc2[nH]c3c(c2c1)CCc1nonc1-3	-99*
CN(C)C(=O)[C@H]1C[C@H]2CCN(CCOCc3ccccc3)C[C@@H]2O1	-25
CC(C)N1CCN(C(=O)c2cc(CN3CCC(O)CC3)on2)CC1C (stereo not given)	13
CCOc1ccc(OCC)c(NC(=O)C2=C(C)C(=O)OC23CCN(Cc2ccccc2)CC3)c1	264
O=C(C[C@@H]1CC[C@H]2NC[C@H](O)COC[C@@H]2O1)NCCN1CCCCC1	-15
CCCCOc1ccc(-c2cc3c(=O)n(Cc4nc(-c5ccccc5OCC)oc4C)ccn3n2)cc1	21
CN(C)CCNC(=O)c1nc2c(o1)CN(C(=O)c1cccnc1)C2	0
CCOC(=O)N1CCC(Nc2c(C(=O)OC)c(=O)[nH]c3c(Cl)cccc23)CC1	-24
CN(C)C(=O)N1CCCC2(COCCN(c3cnccn3)C2)C1 (stereo not given)	66
Cc1nccn1CCN(C)Cc1cc2n(n1)CCNC2	2
COc1cccc(NC(=O)CCC2Nc3c4ccccc4nc(=S)n3C2=O)c1 (stereo not given)	-9
CCN1C[C@H]2[C@H](OC)CCN(C(=O)c3ccc4ccccc4n3)[C@H]2C1	-30
COCC1CCC2(CCN(C(=O)C3CC=CC3)CC2)N1C (stereo not given)	-3
C[C@H]1CN([C@@H](C)CO)C(=O)CCCn2nncc2CO[C@H]1CN(C)Cc1cccc(C(F)(F)F)c1	-106*
N#Cc1nccnc1Sc1cccs1	24
Cc1ccc(CNC(=O)c2nc(Nc3ccc(F)cc3)c3ccccc3n2)cc1	-32
O=C(Cc1cccc(F)c1)Nc1ccc2c(c1)CCC(=O)N2	28
O=C1COC2(CCN(c3ncc(F)cn3)CC2)CN1c1ccsc1	3
Cc1oc(-c2ccccc2Cl)cc1C(=O)Nc1nccs1	-3
C/C=C/c1ccc([C@@H]2[C@@H](CO)N(C(=O)c3ccccc3)C23CN(C(C)=O)C3)cc1	90
O=C(O)CCn1c(=S)n(CCC(=O)O)c2ccccc21	10
COCC(=O)N[C@H]1C[C@@H](C(=O)NCCc2cccc(Cl)c2)N(C)C1	5
Cc1nc(C(=O)NC2(O)C(=O)c3ccccc3C2=O)cs1	-32
O=C(c1ccc(-c2cccs2)s1)c1ccc(F)cc1F	151
CCc1ccc(-c2cc(C)c3c(ccc4ccccc43)n2)cc1	96
CCCCCCCCOc1ccccc1C(=O)Nc1ccc(C(=O)OCC[N+](C)(CC)CC)cc1	-4
Cc1nc2c(nc(SCc3nc(-c4cccc(Br)c4)oc3C)n2C)c(=O)[nH]1	0
O=C(O)[C@H](O)[C@@H](O)[C@H](O)[C@H](O)CO	-8
CC(C)(C1NCCc2[nH]cnc21)N1CCCCC1 (stereo not given)	2
Cc1nc(C(C)C)ncc1C(=O)N1C[C@@H]2[C@@H]3CC[C@@H](C3)[C@@H]2C1	-2
